Source: PubChem BioAssay
StopGo reporter: FMDV 2A StopGo reporter, luciferase signal. human cells with a luciferase reporter of 2A StopGo recoding; control for the full effect not named in the record. Potency, µM (highest dose often 57.9 µM), inactives show at the highest dose signal change, negative = less light. 410,000 compounds, 1.2% hits; active = well fitted falling curve with a large enough effect; inconclusive = small, poorly fitted or top-dose-only effect; inactive = no such curve, though single readings can be large or run the other way; tested in HEK293T cells; note: % is set by controls: 0 for no effect and ±100 for the full control effect; nearly all actives have a fitted effect of over 45% in size; luciferase light after 4 h
SARS PLpro yeast: SARS-CoV PLP inhibition in yeast; Potency, µM (doses to about 32.9 µM), for inactives: top-dose activity, positive = growth rescue; 330,000 compounds, 0.19% hits; AID 485353; S. cerevisiae expressing SARS-CoV PLpro, growth rescue; control for the full effect not named in the record; active means well fitted rising curve with a large enough effect; inconclusive means small, poorly fitted or top-dose-only effect; inactive means no such curve, though single readings can be large or run the other way; note: 0% is about no effect; nearly all actives have a fitted effect of over 55% in size; growth read by luminescence after 48 h
RE007 growth inh: less growth of the S. pombe RE007 Vpr strain | 360,000 compounds, 0.21% hits | S. pombe RE007 Vpr strain, BacTiter-Glo ATP luminescence, 24 h; control for the full effect not named in the record | Potency, µM (doses to about 92.2 µM), inactives show at the top dose activity change, negative = less growth | AID 651644; active = well fitted falling curve with a large enough effect; inconclusive = small, poorly fitted or top-dose-only effect; inactive = no such curve, though single readings can be large or run the other way;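 note: % is set by controls: 0 for no effect and ±100 for the full control effect; nearly all actives have a fitted effect of over 50% in size; the assay follows cell death caused by Vpr and the record does not say whether a fall means rescue or toxicity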
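Fission yeast strain RE007, carrying one chromosomally integrated HIV-1 vpr copy, was seeded at OD 0.01 in PMG+AL medium with 23 nL pinned compound. After 24 h at 30 °C and 99% humidity, viability was read by BacTiter-Glo luminescence.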
Cruzain Triton: blocks cruzain activity in presence of Triton detergent | P25779 | purified cruzain, Z-FR-AMC fluorescence, 0.01% Triton | Potency, µM, for inactives: max response, negative = inhibition, usual class: inhibitors | 200,000 compounds, 0.43% hits | AID 1478;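 note: plate controls were neutral wells for no effect and buffer without enzyme for full effect; nearly all actives have a fitted effect of over 40% in size; top concentration of the series not given in the record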
Target sequence (P25779 123-467 limits assumed): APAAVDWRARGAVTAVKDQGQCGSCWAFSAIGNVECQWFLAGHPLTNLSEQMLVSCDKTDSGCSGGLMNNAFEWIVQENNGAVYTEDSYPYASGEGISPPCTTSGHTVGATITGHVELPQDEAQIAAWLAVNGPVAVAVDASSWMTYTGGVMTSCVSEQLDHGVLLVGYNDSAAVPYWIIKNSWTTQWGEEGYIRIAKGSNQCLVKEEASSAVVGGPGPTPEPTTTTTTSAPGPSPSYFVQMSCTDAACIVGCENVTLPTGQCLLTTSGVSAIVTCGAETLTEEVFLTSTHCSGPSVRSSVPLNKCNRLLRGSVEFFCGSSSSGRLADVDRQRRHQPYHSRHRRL
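15 min RT preincubation of 1.5 nM cruzain with compound, then 2 uM Z-FR-AMC added; kinetic AMC fluorescence, 60 s delta. Triton X-100 0.01%, pH 5.5.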
NS1 inh: influenza NS1 inhibition. S. cerevisiae slowed by influenza A NS1, growth recovery by OD600. Potency, µM (series often up to 46.1 µM), for inactives: top-dose activity, positive = more growth. 270,000 compounds, 0.4% hits; active means well fitted rising curve with a large enough effect; inconclusive means small, poorly fitted or top-dose-only effect; inactive means no such curve, though single readings can be large or run the other way; note: nearly all actives have a fitted effect of over 50% in size
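In this qHTS, NS1 from influenza A is expressed in budding yeast, where it slows growth. Cells are switched from glucose to 2% galactose medium (pH 6.0, -URA), treated with compound, and growth recovery is read at OD600.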
MARV entry inh: blocks Marburg virus binding to or entry into cells | 300,000 compounds, 1.8% hits | Potency, µM (top dose mostly 37.8 µM), without a hit: top-dose activity change, negative = inhibition, most hits filed as inhibitors | AID 540276 | Marburg virus pseudotyped entry inhibition, cell reporter; control for the full effect not named in the record; about a third of the inactives were read at about 46 µM; active = well fitted inhibition curve with a large enough effect; inconclusive = small, poorly fitted or top-dose-only effect, or effect the other way; inactive = flat fitted curve, though single readings scatter; tested in HEK293 cells; about a fifth of its hits are not listed in these tables; note: % is set by controls: 0 for no effect and ±100 for the full control effect; luciferase read-out
Cruzain noTriton: blocks cruzain activity in detergent-free assay | P25779 | purified cruzain, Z-FR-AMC fluorescence, no detergent | Potency, µM, for the others: max response, negative = inhibition, most hits filed as inhibitors | 200,000 compounds, 2.3% hits;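 note: plate controls were enzyme without inhibitor for no effect and buffer without enzyme for full effect; nearly all actives have a fitted effect of over 40% in size; top concentration of the series not given in the record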
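Detergent-free condition (0.00005% Triton X-100) in acetate buffer pH 5.5 with DTT. 1.5 nM enzyme and compound were pre-mixed 15 min, then 2 uM Z-FR-AMC substrate added; reaction progress from fluorescence change between first and third reads (60 s).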
Lassa entry inh: inhibitors of Lassa virus binding or cell entry; 300,000 compounds, 1.2% hits; Potency, µM (highest dose often 37.9 µM), without a hit: at the top dose activity change, negative = inhibition, usual class: inhibitors; Lassa virus pseudotype entry inhibition, cell reporter; control for the full effect not named in the record; active means well fitted inhibition curve with a large enough effect; inconclusive means small, poorly fitted or top-dose-only effect, or effect the other way; inactive means flat fitted curve, though single readings scatter; tested in HEK293 cells; note: % is set by controls: 0 for no effect and ±100 for the full control effect; nearly all actives have a fitted effect of over 50% in size; luciferase read-out
Numbers without * were called inactive; ? = inconclusive; / = no result given; & = joins results of further samples; [ ] = remark or other dose. Unless noted, calls come from the whole dose curve; as a rule, active = well fitted curve in the direction sought with a large enough effect; inconclusive = small, poorly fitted or top-dose-only effect, or another doubt; inactive = no such curve, though single readings can be large; an effect the other way counts as inactive or inconclusive. Potency is the fitted concentration of half-maximal effect.

SMILES	StopGo reporter	SARS PLpro yeast	RE007 growth inh	Cruzain Triton	NS1 inh	MARV entry inh	Cruzain noTriton	Lassa entry inh
Cc1cccc(NC(=O)c2ccc(NS(=O)(=O)c3c(C)noc3C)cc2)c1	-4%	-2%	27%	-6.2%	-2%	0%	-7%	8%
Cc1cccc(Nc2nc(-c3ccccc3)cs2)n1	-41%	-26%	?	/	-3%	/	/	/
O=C(CSc1nc(=O)n(CCN2CCOCC2)c2c1CCC2)Nc1ccc(Cl)c(Cl)c1	?	/	/	-0.5%	/	/	-6%	16%[46.1 µM]
CC1CCCN(C(=O)CSc2c3c(nc4cc(Cl)ccc24)CCCC3)C1 (stereo unspecified)	?	/	/	-8.3%	/	19%[46.1 µM]	-5%	-44%[46.1 µM]
CC(C(=O)NCCCn1ccnc1)(c1ccccc1)c1ccccc1	-19%	2%	0%	/	-2%	-3%	/	5%
COC(=O)/C=C1/SC(=NC(=O)c2cccc([N+](=O)[O-])c2)NC1=O	-27%	5%	7%	/	6%	?	/	8%[46.1 µM]
COC(=O)c1[nH]c2cc(OC)ccc2c1NC(=O)CCN1CCN(Cc2ccc3c(c2)OCO3)CC1	-4%	8%	2%	-3.4%	5%	8%&8%	-1%	10%
CCNc1nc(OCCNC(C)=O)nc(N(C)C)n1	-13%	-3%	-17%	3.7%	?	6%	6%	13%
CCO[C@H]1OC(C(=O)NCc2ccccc2)=C[C@@H](c2ccc(Br)cc2)[C@@H]1CCCO	-17%	3%	22%	/	-1%	/	/	/
N#C/C(=C\c1ccc(O)cc1)C(=O)NCc1cccc(Cl)c1	1%	-3%	15%	/	4%	/	/	/
COc1ccc(-c2nc(CSc3nncn4c3cc3sccc34)c(C)o2)cc1OC	4%	/	/	-0.5%	/	/	-4%	11%[46.1 µM]
Cc1ccccc1NC(=O)Cc1nc(COC(=O)c2cc([N+](=O)[O-])ccc2N)cs1	-5%	-4%	10%	/	?	-22%	/	0%
CCCCN(C)CCC(=O)Nc1ccc(C)cc1	-11%	7%	5%	0.1%	-2%	-1%	-11%	4%
O=[N+]([O-])c1cc(-c2ccc([As](=O)(O)O)cc2)ccc1[As](=O)(O)O	/	3%	/	3.0%	-8%&10%	/	4%	/
CCOc1cc(C(c2c(C)[nH][nH]c2=O)c2c(C)[nH][nH]c2=O)ccc1OS(=O)(=O)c1ccccc1	-9%	-5%	-18%	-1.0%	10%	-1%	12%	-1%
O=C(Cc1n[nH]c(=O)c2ccccc12)OCC(=O)c1ccc(F)cc1	-22%	-3%	7%	/	/	?	/	8%[46.1 µM]
CCOc1ccc(OCC)c(NS(=O)(=O)c2cc(-c3onc(C)c3C)ccc2OC)c1	22%	/	/	-0.6%	/	/	28%	6%[46.1 µM]
c1ccc(Cc2nc3ccccc3o2)cc1	28%	3%	-12%	6.8%	-4%	?	1%	24%
C=CCC1C(=O)NC(=S)NC1=O	-8%	2%	-3%	/	/	-7%[46.1 µM]	/	3%
COC(CNC(=O)c1cc(C)nn1-c1ccccc1)OC	8%	10%	11%	3.3%	-19%	18%	1%	?
O=C(CSc1ccc(-c2ccc(Cl)cc2)nn1)N1CCCc2ccccc21	?	-15%	4%	-5.5%	2%	?	-8%	?
O=C(Nc1ccccc1Br)N1CCC(CN2CCCC2)CC1	-5%	/	/	-0.7%	/	/	-5%	23%[46.1 µM]
COc1ccc2cc(C(=O)N3CCOCC3)sc(=O)c2c1OC	-14%	4%	-1%	4.0%	0%	6%	-5%	6%
Cc1c2cnn(CC(=O)NCc3ccc(F)cc3)c(=O)c2c(C)n1Cc1cccc(Cl)c1	-23%	/	/	-2.3%	/	?	?	-1%[46.1 µM]
CCOc1ccc(C(=O)COC(=O)C2CCN(c3ccc(C(F)(F)F)cn3)CC2)cc1	-6%	-1%	-8%	/	/	18%	/	-17%
COc1ccc(N2CC(NC(=O)C3CC3)CC2=O)cc1OC (stereo unspecified)	-1%	/	/	1.0%	/	/	9%	7%[46.1 µM]
Cc1cc(C)cc(N2C(=O)CSC23C(=O)N(CC(N)=O)c2ccccc23)c1 (stereo unspecified)	15%	/	/	-1.2%	/	/	0%	11%[46.1 µM]
O=C(O)c1cccnc1C(=O)N1CCc2c([nH]c3ccccc23)C1C(F)(F)F (stereo unspecified)	-7%	1%	3%	/	5%	-3%	/	5%
Nc1ccc(C2(c3ccc(N)cc3)c3ccccc3-c3ccccc32)cc1	?	-11%	11%	-9.9%	?	?	?	7%
O=C(NCc1ccc(N2CCCC2=O)cc1)c1ccc(F)cc1	27%	7%	7%	/	5%	-14%[46.1 µM]	/	12%
Cc1nnc(NC(=O)c2ccc(C)c(S(=O)(=O)N3CCCCCC3)c2)s1	-7%	-8%	-4%	3.2%	-12%	9%	14%	0%
CCOC(=O)CNC(=O)CSc1ncnc2c1cnn2-c1ccc(Cl)cc1	-8%	8%	11%	2.2%	-4%	27%[46.1 µM]	?	7%
COc1ccc(CCNC(=O)c2ccc3c(c2)N(Cc2ccccc2)CCS3)cc1OC	?	1%	9%	-7.4%	18%	?	12%	?
CCCn1c(CCC(=O)O)nc2cc(S(=O)(=O)N(CC)CC)ccc21	0%	1%	-9%	/	10%	/	/	/
C#CC(CC)(CC)NC(=O)c1nn(-c2ccccc2Cl)c(C)cc1=O	-38%	1%	26%	/	-11%	-4%[46.1 µM]	/	-5%
COc1ccc(C(C)=O)cc1CSc1ncccn1	10%	1%	3%	/	3%	?	/	5%[46.1 µM]
Cc1nn(-c2ccccc2)c(C)c1NC(=O)COC(=O)/C=C/c1ccccc1	-11%	1%	25%	/	/	-2%	/	-18%
S=c1[nH]nc(C2CCCCC2)n1/N=C/c1ccccc1	-7%	-3%	1%	/	-2%	/	/	/
CCCSc1nc(-c2ccccc2)[nH]c1S(=O)(=O)c1ccc(C)cc1	30%	/	/	-11%	/	?	0%	-21%[46.1 µM]
CC(C)CN1CCN(Cc2nc3ccccc3s2)CC1CCO (stereo unspecified)	23%	1%	-20%	/	2%	?	/	10%
COc1ccc(Nc2nc3ccccc3nc2-n2nc(C)cc2C)cc1	-14%	-2%	0%	-2.3%	12%	-26%	-4%	7%
CCOc1ccc(C(C#N)N2CCOCC2)cc1OC (stereo unspecified)	-1%	-8%	-9%	-1.2%	16µM*	?	4%	0%
COC(=O)CCC(=O)c1oc2ccc(Cl)cc2c1NC(=O)CCCN1C(=O)c2ccccc2C1=O	?	1%	-3%	-0.1%	7%	11%	16%	-10%
COc1ccc(OC)c(S(=O)(=O)Nc2ccc3oc4c(c3c2)C(=O)CCC4)c1	0%	-5%	2%	1.0%	?	-3%&-10%	?	-5%
C/C(=N\NC(=O)C1CC1)c1ccc2c(c1)OCCO2	47%[activator]	1%	-2%	/	-1%	20%[46.1 µM]	/	?
O=C1c2ccc([N+](=O)[O-])cc2C(=O)N1c1c[nH]c(=O)[nH]c1=O	17%	-1%	-7%	/	8%	-3%[46.1 µM]	/	8%
CCN1CCN(C(=O)c2nn(C)c3c2CS(=O)(=O)c2ccccc2-3)CC1	-18%	-1%	-1%	/	-6%	/	/	/
CC(C(=O)Nc1sccc1C(N)=O)N1C(=O)C2CC=CCC2C1=O (stereo unspecified)	-23%	3%	1%	-0.6%	-7%	6%	7%	-1%
Nc1nnc(COc2cccc(C(F)(F)F)c2)s1	-21%	-5%	-1%	-5.5%	-2%	-20%[46.1 µM]	7%	-14%
Cc1nc(-c2ccccc2)sc1C(=O)/C=C/N(C)C	47%[activator]	-1%	5%	/	2%	-9%	/	1%

Next entries:
SMILES	StopGo reporter	SARS PLpro yeast	RE007 growth inh	Cruzain Triton	NS1 inh	MARV entry inh	Cruzain noTriton	Lassa entry inh
Cc1nc(OCc2ccccc2)c2ccccc2n1	?	8%	-1%	-3.3%	-7%	?	-3%	?
Nc1ccc2c(c1)N=[N+]([O-])c1cc(N)ccc1C2	-2%	3%	1%	/	?	/	/	/
CCc1ccc(CN(C(=O)Nc2cccc(Cl)c2)c2ccccn2)cc1	36%[activator]	/	/	-4.8%	/	18%[46.1 µM]	-20%	-1%[46.1 µM]
O=[N+]([O-])c1ccc(N/N=C/c2ccc[nH]2)cc1	0%	-68%	0%	-24%	?	?	25µM*	?
CC(=O)c1ccc(N2C(=O)NC3(CCCCC3)C2=O)cc1	12%	4%	7%	3.9%	-28%	?	1%	18%
Cc1ccc(S(=O)(=O)N(CC(=O)NCC2CCCO2)C2CCCCC2)cc1 (stereo unspecified)	-3%	1%	10%	/	4%	0%[46.1 µM]	/	-24%
COc1ccccc1Cn1c(=S)[nH]c2cc(C(=O)NCCCN3CCOCC3)ccc2c1=O	-16%	-4%	-6%	/	-15%	/	/	/
CCOC(=O)c1ccccc1NC(=O)COC(=O)CCC(=O)c1ccc(C)cc1	-8%	-3%	8%	/	/	21%	/	-4%
CC1Cc2ccccc2N1C(=O)Cn1nnc(-c2ccccc2NC(=O)C2CCC2)n1 (stereo unspecified)	/	14%	-17%	-3.0%	-42%	?	?	?
CN(C)CC1CSCCC1(O)c1cccc(Cl)c1 (stereo unspecified)	-10%	-6%	-1%	1.1%	?	-11%	-3%	20%
O=C(NC1CCS(=O)(=O)C1)C1CCCC1 (stereo unspecified)	-23%	-2%	-2%	/	/	14%	/	5%
COc1ccc(NC(=O)CSc2nccn2Cc2ccc(F)cc2)c(OC)c1	-10%	14%	4%	/	-23%	-9%	/	-2%
CCOc1ccc(/C=N/Nc2cc(=O)n(C)c(=O)n2C)cc1	6%	26%	17%	-3.9%	?	19%	7%	?
CCNc1nc(NCC)nc(ON=C(C)C)n1	/	3%	/	3.2%	-6%	-7%	-7%	/
CCOc1ccc(CCNC(=O)c2ccccc2OCc2c(C)noc2C)cc1OCC	-20%	-5%	0%	/	/	-25%	/	-10%
CCN(C(=O)/C=C/c1ccc(OC)cc1)C1CCS(=O)(=O)C1 (stereo unspecified)	-5%	2%	-3%	/	/	-2%[46.1 µM]	/	10%
